RGS12 GoLoco inh = RGS12 GoLoco-Gai1 interaction inhibition; P63096; Gai1:RGS12 GoLoco peptide FP, rhodamine, 10 min; Potency, µM (top dose mostly 61.6 µM), for inactives: at the highest dose activity, negative = inhibition, hits mostly inhibitors; hit rate 0.44% among 230,000; AID 880; active = well fitted inhibition curve with a large enough effect, not every such curve was filed as active; inactive = no such curve, though single readings can be large or run the other way; also: nearly all actives have a fitted effect of over 30% in size; many of its hits are not listed in these tables
Target sequence (P63096 whole entry, looked up): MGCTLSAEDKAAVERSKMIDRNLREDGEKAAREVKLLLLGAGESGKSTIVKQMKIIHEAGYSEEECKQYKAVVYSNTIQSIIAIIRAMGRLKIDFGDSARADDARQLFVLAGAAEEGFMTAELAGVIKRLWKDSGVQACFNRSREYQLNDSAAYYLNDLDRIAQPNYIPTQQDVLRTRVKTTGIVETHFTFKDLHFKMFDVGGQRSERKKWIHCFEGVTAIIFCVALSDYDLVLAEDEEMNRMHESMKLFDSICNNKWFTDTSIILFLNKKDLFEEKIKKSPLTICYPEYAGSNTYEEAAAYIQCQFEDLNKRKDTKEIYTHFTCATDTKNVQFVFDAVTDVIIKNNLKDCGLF
TR SRC2 fluor cs = counter-screen for TRb-SRC2 inhibitors: fluorescence interference. TRb/SRC2 Texas Red total fluorescence interference. Potency, µM (doses to about 106 µM), without a hit: top-dose fluorescence change, negative = quenching. hit rate 0.29% among 280,000. AID 1479; active = well fitted curve in either direction with a large enough effect; inconclusive = small, poorly fitted or top-dose-only effect
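Human TRβ ligand-binding domain (0.6 uM) and Texas Red SRC2 peptide (20 nM) in Tris buffer with 1 uM T3 and 5% DMSO were incubated with pinned compound for 5 hr at ambient temperature. Total fluorescence was computed as S + 2P (555/632 nm).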
L3MBTL1 block = blocks human L3MBTL1 | Q9Y468 | AlphaScreen L3MBTL1–H3K9me1 peptide binding | Potency, µM (series often up to 57.1 µM), without a hit: at the top dose activity, negative = inhibition, most hits filed as inhibitors | hit rate 0.66% among 230,000; also: nearly all actives have a fitted effect of over 60% in size
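Read-out is AlphaScreen signal from streptavidin donor and nickel chelate acceptor beads (10 ug/mL final each) bridging L3MBTL1 (50 nM) and biotinylated K9-monomethylated H3(1-15) peptide (75 nM), after 30 min compound exposure at room temperature.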
Tau FP inhib = inhibitors of human tau fibril formation. P10636. K18 P301L tau heparin fibrillization, Alexa594 FP, 6 h. Potency, µM (titrated, usually from 57.7 µM), for inactives: top-dose activity, negative = inhibition, actives largely listed as inhibitors. hit rate 0.39% among 280,000; also: nearly all actives have a fitted effect of over 55% in size
Target sequence (P10636 561-689 P618L limits assumed): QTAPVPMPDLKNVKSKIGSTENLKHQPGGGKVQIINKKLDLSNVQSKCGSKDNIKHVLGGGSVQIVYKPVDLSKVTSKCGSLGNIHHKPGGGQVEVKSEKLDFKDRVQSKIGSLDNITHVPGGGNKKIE
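Steps: dispense K18 P301L tau (15 uM plus 0.24 uM Alexa 594 tracer, final) in pH 7 sodium acetate; add compound; add heparin (20 uM final); incubate 6 hr, 37 C; add ThT (30 uM final); after 1 hr ambient, read FP.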
RECQ1 inh = RECQ1 (human) helicase inhibition; P46063; RECQ1 DNA unwinding, red fluorescence kinetic read; Potency, µM (titrated, usually from 57.3 µM), inactives show at the highest dose activity, negative = inhibition, most hits filed as inhibitors; hit rate 0.54% among 240,000; AID 2549;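 also: plate controls were vehicle for no effect and no enzyme for full effect; nearly all actives have a fitted effect of over 30% in size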
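RECQ1T1 50 nM; forked duplex (20 bp + 30-nt ss tails) 200 nM, ATP 2 mM final; pH 8.0, 2 mM MgCl2, 2.5 ug/ml poly(dI-dC); 15 min compound preincubation; discontinuous kinetic read over 2 h at RT.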
Tau fibril ThT = inhibitors of human tau fibril formation, thioflavin T binding | recombinant tau K18 P301L (four-repeat tau fragment), heparin-induced fibrillization, ThT fluorescence | hit rate 2.1% among 270,000 | P10636 | Potency, µM (titrated, usually from 57.4 µM), for the others: at the top dose activity, negative = inhibition, actives largely listed as inhibitors | AID 1460; also: nearly all actives have a fitted effect of over 55% in size
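Recombinant human tau K18 fragment […] carrying P301L, 15 uM unlabeled plus 0.24 uM Alexa 594-labeled, was fibrillized with 20 uM heparin in 100 mM sodium acetate pH 7 for 6 hr at 37 C; 30 uM ThT fluorescence read after 1 hr.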
TRb SRC2 PPI = disrupts binding of human TR beta to SRC2. P10828. TRbeta-SRC2 peptide binding, fluorescence polarization; receptor liganded with 1 µM T3. Potency, µM (top dose mostly 106 µM), for the others: at the highest dose activity change, negative = inhibition, hits mostly inhibitors. hit rate 0.065% among 280,000;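 also: plate controls were bound peptide for no effect and peptide without receptor for full effect; nearly all actives have a fitted effect of over 50% in size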
Target sequence (P10828 whole entry, looked up): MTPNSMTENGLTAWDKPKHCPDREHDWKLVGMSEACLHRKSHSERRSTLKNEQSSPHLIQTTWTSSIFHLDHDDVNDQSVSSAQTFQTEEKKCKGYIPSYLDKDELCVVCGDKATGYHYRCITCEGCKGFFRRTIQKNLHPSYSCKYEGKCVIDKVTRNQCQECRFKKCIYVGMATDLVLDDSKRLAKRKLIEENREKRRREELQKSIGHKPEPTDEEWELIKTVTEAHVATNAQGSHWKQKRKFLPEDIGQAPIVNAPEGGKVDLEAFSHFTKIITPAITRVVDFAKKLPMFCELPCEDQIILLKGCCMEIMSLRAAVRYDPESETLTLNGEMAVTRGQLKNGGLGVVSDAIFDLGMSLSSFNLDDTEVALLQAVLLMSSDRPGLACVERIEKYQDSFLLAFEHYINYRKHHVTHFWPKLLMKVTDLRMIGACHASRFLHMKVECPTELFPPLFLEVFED
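Polarization signal, normalized between peptide-alone and full complex controls, measured compound effects on T3-liganded human TRb LBD (0.6 uM) binding 20 nM Texas Red SRC2 peptide after 5 hr.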
The depositor's hits bear a star; i = inactive; ? = inconclusive; . = no result given; [ ] = another dose, or the depositor's remark. Unless noted, calls follow the shape of the dose curve; as a rule, active = well fitted curve in the direction sought with a large enough effect; inconclusive = small, poorly fitted or top-dose-only effect, or another doubt; inactive = no such curve, though single readings can be large; an effect the other way counts as inactive or inconclusive. Unless noted, % is scaled to controls: 0 for no effect and ±100 for the full control effect; potency is read from the fitted curve at half-maximal effect. These rows are one share of the data; count on the stated rates, not on these rows.

nr | Molecule | RGS12 GoLoco inh | TR SRC2 fluor cs | L3MBTL1 block | Tau FP inhib | RECQ1 inh | Tau fibril ThT | TRb SRC2 PPI
1 | COc1ccc(S(=O)(=O)NCC2CCCN(C(=O)c3ccccc3)C2)cc1 (centres undefined) | 8% | -3% | 5% | 0% | i | -2% | -4%
2 | COc1ccc(CNCCNC(=O)c2cccs2)cc1OC | 2% | -4% | 5% | -3% | i | -8% | -3%
3 | Cc1cc(C)c2nc(NC(=O)c3ccc(OCC4CCCO4)cc3)sc2c1 (centres undefined) | 5% | 2% | -3% | 2% | i | -13% | 5%
4 | CCCCN1C(=O)C2(NNc3ccccc3O2)c2ccccc21 (centres undefined) | 53%[activator] | 1% | . | -13% | -14% | 11µM* | -25%
5 | COc1cccc2[nH]c(C(=O)NN)c(N)c12 | 14% | -1% | -17% | ? | -4% | 28µM* | 6%
6 | Cc1cc2oc(=O)cc(CN3CCN(C/C=C/c4ccccc4)CC3)c2cc1O | 15% | 0% | -3% | 5% | 2% | ? | -22%
7 | C/C(Cn1nnc([N+](=O)[O-])n1)=N\NC(=O)c1ccc(O)cc1O | 8% | -15% | 5% | -4% | i | ? | 5%
8 | O=C(c1ccccc1)N1CCN(c2ncnc3c(-c4ccccc4)nsc23)CC1 | 19% | -1% | -2% | 4% | 0% | -14% | 4%
9 | CC1CCCCN1S(=O)(=O)c1ccc(C(=O)Nc2nnc(-c3ccncc3)o2)cc1 (centres undefined) | 3% | -3% | . | 3% | -5% | -14% | -8%
10 | Cc1ccc(C(=O)Nc2nnc(-c3ccncc3)o2)cc1 | 4% | 0% | ? | -1% | -2% | -5% | 1%

Going on with the list:
nr | Molecule | RGS12 GoLoco inh | TR SRC2 fluor cs | L3MBTL1 block | Tau FP inhib | RECQ1 inh | Tau fibril ThT | TRb SRC2 PPI
11 | O=S(=O)(c1cccc(Cl)c1Cl)N1CCN(C(=S)NCCCN2CCOCC2)CC1 | 7% | 2% | -5% | 3% | -6% | 1% | -1%
12 | Cc1ccc(NC(=O)CN(C)CC(=O)Nc2ccccc2Oc2ccccc2)cc1 | 3% | 3% | 11% | 3% | -1% | -3% | 3%
13 | COc1ccc(S(=O)(=O)n2nc(OC(=O)c3ccncc3)cc2N)cc1 | -12% | -2% | 9% | 9% | -1% | ? | -7%
14 | O=Nc1onc(-c2ccc([N+](=O)[O-])cc2)c1NO | 4% | -5% | -10% | -3% | 0% | ? | 2%
15 | Cc1ccc(OCCOCCN2CCN(C)CC2)c([N+](=O)[O-])c1 | 1% | -1% | 14% | -9% | -11% | -12% | 3%
16 | COC(=O)c1ccc(-c2ccco2)n1Cc1nc(-c2ccc(OC)c(OC)c2)oc1C | -12% | -1% | -2%[11.4 µM] | -10% | -26% | ? | 4%
17 | O=C(Nc1cccc2c1CCCC2)c1ccncc1 | 5% | 2% | ? | -1% | -7% | -1% | -15%
18 | CS(=O)(=O)Nc1nc2n(n1)C(c1ccccc1)CC(c1ccccc1)N2 (centres undefined) | -4% | -1% | . | -9%[0.0958 µM] | 15% | . | -3%
19 | CCCn1c2c(c(O)c(C(=O)Nc3ncccc3O)c1=O)CCCC2 | . | 1% | 0% | -12% | -1% | ? | -14%
20 | O=[N+]([O-])c1ccccc1CNC1CCCCCC1 | -14% | -9% | -4% | -6% | i | -11% | 3%

Arranged by SMILES length (smallest number first): part of the list above
nr | Molecule | RGS12 GoLoco inh | TR SRC2 fluor cs | L3MBTL1 block | Tau FP inhib | RECQ1 inh | Tau fibril ThT | TRb SRC2 PPI
17 | O=C(Nc1cccc2c1CCCC2)c1ccncc1 | 5% | 2% | ? | -1% | -7% | -1% | -15%
14 | O=Nc1onc(-c2ccc([N+](=O)[O-])cc2)c1NO | 4% | -5% | -10% | -3% | 0% | ? | 2%
12 | Cc1ccc(NC(=O)CN(C)CC(=O)Nc2ccccc2Oc2ccccc2)cc1 | 3% | 3% | 11% | 3% | -1% | -3% | 3%

(cont.)
nr | Molecule | RGS12 GoLoco inh | TR SRC2 fluor cs | L3MBTL1 block | Tau FP inhib | RECQ1 inh | Tau fibril ThT | TRb SRC2 PPI
21 | COc1ccc(OC)c(Nc2nc3ccccc3n3cnnc23)c1 | 17% | -1% | . | -5% | -1% | . | -3%
22 | CCOC(=O)c1ccc(N2CSC3=C(C#N)C(c4ccc(OC)cc4OC)CC(=O)N3C2)cc1 (centres undefined) | -17% | -5% | . | -7% | -1% | 25µM* | 4%
23 | C=CCn1cnc2sc(C(=O)Nc3ccccc3OC)c(C)c2c1=O | 14% | -5% | -12% | -17% | -2% | ? | ?
24 | Cc1c(N(C)C)nc2ccccc2c1N | -8% | -6% | 6%[11.4 µM] | 1% | 1% | 3% | 3%
25 | O=C(NNC(=O)c1cnccn1)c1ccc(Cl)cc1 | 6% | -3% | . | 6% | -5% | . | -3%
26 | Cc1ccc(OCCOCCNC(C)(C)C)c([N+](=O)[O-])c1 | -1% | 0% | 6% | -4% | -1% | -7% | 5%
27 | CC1CCN(S(=O)(=O)c2ccc(NC(=O)Cc3ccccc3)cc2)CC1 | 9% | 1% | . | ? | -6% | -12% | 9%
28 | CCOC(=O)CC1=C(C(=O)OCC)C(c2ccc(OC)c(OC)c2)C(C#N)=C(N)O1 (centres undefined) | 4% | -3% | 0% | 0% | -2% | -8% | -22%
29 | COc1cccc(/C=N/NC(=O)CSc2ccccc2C)c1OC | -13% | -6% | -1% | -6% | -14% | -14% | -4%
30 | CC(C)c1cccc(C(C)C)c1NC(=O)CNCc1ccccc1F | -4% | -2% | -2% | -4% | i | -6% | -2%

New compounds follow.
nr | Molecule | RGS12 GoLoco inh | TR SRC2 fluor cs | L3MBTL1 block | Tau FP inhib | RECQ1 inh | Tau fibril ThT | TRb SRC2 PPI
31 | Cc1ccccc1S(=O)(=O)NNC(=O)C(=O)NNc1ccccn1 | 5% | 2% | -3% | 2% | -1% | -14% | -7%
32 | O=C1CC(c2ccccc2)Cc2nc3nc(C(F)(F)F)nn3cc21 (centres undefined) | -3% | -2% | . | 6% | -7% | -17% | -15%
33 | CCCN1CCN(C(=S)Nc2ccccc2C(F)(F)F)CC1 | . | -3% | 2% | 4% | -2% | -1% | 0%
34 | Cc1nc(-c2cccnc2)sc1C(=O)N/N=C/c1ccccc1Cl | 8% | -4% | . | -6% | i | . | 3%
35 | Cc1[nH]n2c(=O)c3c(nc2c1-c1cccc2ccccc12)CCC3 | 8% | 2% | 1% | 9% | 13% | -16% | -5%
36 | CC(=O)NC(CSC(CC(=O)c1ccco1)c1ccc(C)cc1)C(=O)O (centres undefined) | 2% | -6% | -3% | 8% | i | ? | -4%
37 | CC(=O)c1ccc(NC(=O)CNCC(c2ccccc2)N(C)C)cc1 (centres undefined) | 9% | -1% | -24% | 1% | -13% | -10% | -2%
38 | COCC(C)NCc1cccc2ccccc12 (centres undefined) | -8% | 1% | 5% | -5% | -1% | -8% | 6%
39 | O=C(CSc1ccc2nnc(-c3cccnc3)n2n1)NCC1CCCO1 (centres undefined) | 1% | -1% | 30% | 1% | 2% | 0% | 4%
40 | CN(C)c1nc2ccccc2c(N)c1-c1ccccc1 | -8% | 2% | -8% | 2% | 11% | 3% | -15%

Next results.
nr | Molecule | RGS12 GoLoco inh | TR SRC2 fluor cs | L3MBTL1 block | Tau FP inhib | RECQ1 inh | Tau fibril ThT | TRb SRC2 PPI
41 | CCN(CC)S(=O)(=O)c1cccc(-c2n[nH]c(=S)n2CC(C)C)c1 | 6% | 2% | . | -8% | -7% | -11% | 5%
42 | O=C(CSc1ccc2nnc(-c3cccnc3)n2n1)c1ccccc1 | 6% | 0% | 0% | -7% | -4% | -10% | 1%
43 | COn1c(-c2ccccc2)nc2c1CCc1nonc1-2 | 10% | 1% | 4% | 3% | -5% | -3% | -5%
44 | Clc1ccc(OCCN2CCCCC2)cc1Cl | -2% | 0% | 0% | -3% | -1% | 5% | -5%
45 | CC(CC(=O)c1cccs1)CC(=O)c1cccs1 | -10% | 0% | -9% | -9% | -11% | 1% | -6%
46 | CC1CCCCC1NCc1cccc([N+](=O)[O-])c1 (centres undefined) | 6% | -7% | -7% | 4% | i | -3% | 1%
47 | Cc1ccccc1CN(C)CC(=O)Nc1ccccc1Oc1ccccc1 | -7% | -3% | 23% | -10% | -4% | -15% | -11%
48 | CC1(C)CC(=O)C2=C(C1)OC(N)=C(C#N)C21CCN(C(=O)OCc2ccccc2)CC1 | 18% | 6% | . | -1% | -3% | ? | -23%

Entries listed so far containing an aryl methoxy group:
nr | Molecule | RGS12 GoLoco inh | TR SRC2 fluor cs | L3MBTL1 block | Tau FP inhib | RECQ1 inh | Tau fibril ThT | TRb SRC2 PPI
1 | COc1ccc(S(=O)(=O)NCC2CCCN(C(=O)c3ccccc3)C2)cc1 (centres undefined) | 8% | -3% | 5% | 0% | i | -2% | -4%
2 | COc1ccc(CNCCNC(=O)c2cccs2)cc1OC | 2% | -4% | 5% | -3% | i | -8% | -3%
5 | COc1cccc2[nH]c(C(=O)NN)c(N)c12 | 14% | -1% | -17% | ? | -4% | 28µM* | 6%
13 | COc1ccc(S(=O)(=O)n2nc(OC(=O)c3ccncc3)cc2N)cc1 | -12% | -2% | 9% | 9% | -1% | ? | -7%
16 | COC(=O)c1ccc(-c2ccco2)n1Cc1nc(-c2ccc(OC)c(OC)c2)oc1C | -12% | -1% | -2%[11.4 µM] | -10% | -26% | ? | 4%
21 | COc1ccc(OC)c(Nc2nc3ccccc3n3cnnc23)c1 | 17% | -1% | . | -5% | -1% | . | -3%
22 | CCOC(=O)c1ccc(N2CSC3=C(C#N)C(c4ccc(OC)cc4OC)CC(=O)N3C2)cc1 (centres undefined) | -17% | -5% | . | -7% | -1% | 25µM* | 4%
23 | C=CCn1cnc2sc(C(=O)Nc3ccccc3OC)c(C)c2c1=O | 14% | -5% | -12% | -17% | -2% | ? | ?
28 | CCOC(=O)CC1=C(C(=O)OCC)C(c2ccc(OC)c(OC)c2)C(C#N)=C(N)O1 (centres undefined) | 4% | -3% | 0% | 0% | -2% | -8% | -22%
29 | COc1cccc(/C=N/NC(=O)CSc2ccccc2C)c1OC | -13% | -6% | -1% | -6% | -14% | -14% | -4%

From PubChem BioAssay
